High-throughput results from PubChem.
Measles inh: inhibitors of measles virus growth in cells, primary screen, measles RdRp inhibitor project, cell-based, single point, HTS; AID 745, 2007; actives 0.1% (n = 33,000); z-score (no concentration beside the values); infected Vero cells, GFP fluorescence, 64 h; hits give low values;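 active = z-score under -3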;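 also: score is relative to mean and SD of the compound wells of a plate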
Numbers without * were called inactive. Some of the compounds tested; the hit share may differ from the screen's.

Sample of the layout:
Molecule,Measles inh
COc1ccc(OC(C)C(=O)Nc2ccc(Br)cc2)cc1 (configuration not stated),-1.8
O=C(CCCn1c(=S)[nH]c2ccc(Br)cc2c1=O)NCCCN1CCOCC1,-0.86

All compounds of this part, from the start:
Molecule,Measles inh
COc1ccc(OC(C)C(=O)Nc2ccc(Br)cc2)cc1 (configuration not stated),-1.8
O=C(CCCn1c(=S)[nH]c2ccc(Br)cc2c1=O)NCCCN1CCOCC1,-0.86
CN(CC(=O)NC1CCCC1)S(=O)(=O)c1ccc(Br)s1,1.4
COc1ccc(C)cc1NC(=O)CN1CCN(S(=O)(=O)c2ccc(F)cc2)CC1,0.04
COc1cccc(CNC(=O)CNS(=O)(=O)c2cccc3nonc23)c1,-0.35
Cc1cc(=O)[nH]c(/N=C(\N)Nc2cccc(Cl)c2)n1,1.2
Brc1ccc(-c2csc(Nc3ncccn3)n2)cc1,0.12
Cc1c(C(=O)NCc2ccccc2Cl)sc2ncnc(N3CCOCC3)c12,0.66
COc1cc2c(cc1OC)C(C(=O)N1CCN(c3ccccc3)CC1)C(c1ccc(SC)cc1)N(C)C2=O (configuration not stated),1.4
C=CCOC(=O)C1=C(C)N=C2SC(CC)C(=O)N2C1c1ccc(OC(C)=O)cc1 (configuration not stated),1.1
CC1CC(C)CN(S(=O)(=O)c2ccc(C(=O)N=c3sc4cc([N+](=O)[O-])ccc4n3C)cc2)C1 (configuration not stated),0.21
COc1ccc(CC(=O)N2N=C(C)CC2(O)c2ccccc2)cc1OC (configuration not stated),1.5
CCC(Sc1nc2ccccc2o1)C(N)=O (configuration not stated),0.25
C=CCOC(=O)C1=C(C)N=C2SCCC(=O)N2C1c1ccc(C)cc1 (configuration not stated),1.2
Cc1cccc(NC(=O)c2ccc(S(=O)(=O)N3CCOCC3)cc2)c1C,0.52
O=C(CN(c1cc(C(F)(F)F)ccc1Cl)S(=O)(=O)c1ccccc1)NCC1CCCO1 (configuration not stated),-0.61
CSc1nc2sc3c(c2c(=O)n1CCc1ccccc1)CCC3,1.3
CC1Cc2nc(SCC(=O)Nc3cccc4ccccc34)n(Cc3ccccc3)c(=O)c2S1 (configuration not stated),0.03
COc1cc(C(=O)Nc2cccc(NC(=O)c3cccc(Cl)c3)c2)cc(OC)c1OC,-0.61
COC(=O)c1ccc(C)c(NS(=O)(=O)c2ccc3c(c2)OCCO3)c1,-0.1
Cc1ccc(S(=O)(=O)N=C(Nc2cc(C)on2)c2ccccc2)cc1,-0.51
O=C1CCCC2=C1C(c1ccc(Cl)cc1)n1c(nc3ccccc31)N2 (configuration not stated),-0.38
Cc1ccc(-c2cc(C(=O)Nc3ccc(C(N)=O)cc3)c3ccccc3n2)o1,1.7
CCCC(=O)N1c2ccccc2NC2=C(C(=O)CCC2)C1c1ccccc1Cl (configuration not stated),-0.33
COc1ccccc1N1CCN(c2ccc(N3C(=O)CCCC3=O)cc2[N+](=O)[O-])CC1,-0.66
CCOC(=O)CN1C(=O)C(O)(CC(=O)c2cccc(OC)c2)c2ccccc21 (configuration not stated),-0.38
COc1cc(C=NS(=O)(=O)c2cccs2)cc(Br)c1O,-0.92
N#CCN1CCn2c3c(c4cc(C5CCCCC5)ccc42)CCCC31 (configuration not stated),0.89
Cc1ccc(C2C(=O)N(C3CCCC(C)C3C)CC(=O)N2CCC2=CCCCC2)cc1 (configuration not stated),-1.1
CCOc1ccc(C2C(C(=O)OC)C(=O)CC(C)(O)C2C(=O)OC)cc1 (configuration not stated),1.5
O=C(Nc1ccc([N+](=O)[O-])cc1O)C1C2CC/C=C\CC/C=C\CCC21 (configuration not stated),0.25
Cc1ccc(Oc2ccc3c(c2)C(=O)N(c2cccc(C(=O)O)c2)C3=O)cc1C,1.8
CCc1cccc(NC(=O)C2c3ccccc3C(=O)N(C)C2c2c[nH]c3ccccc23)c1 (configuration not stated),-0.5
CCOC(=O)C1=CN(C)C=C(C(=O)OCC)C1c1cccc(Cl)c1,0.48
COc1ccc(OC)c(C2C3=C(CCCC3=O)Nc3nc(SC)nn32)c1 (configuration not stated),0.17
O=C1NCC(COc2cccc3ccccc23)O1 (configuration not stated),-0.25
Cc1cccc(NC(=O)COc2cccc(C)c2C)c1C,0.95
Cc1ccc2nc(Nc3nc(C)cc(=O)[nH]3)nc(C)c2c1,1.4
Cc1ccc(Cn2c(SCCO)nc3c2c(=O)[nH]c(=O)n3C)cc1,0.51
C=CCNC(=O)c1sc(=S)n(CCc2ccccc2)c1N,0.33

In a second layout: 2 of the compounds above.
Measles inh | smiles
0.25 | O=C(Nc1ccc([N+](=O)[O-])cc1O)C1C2CC/C=C\CC/C=C\CCC21 (configuration not stated)
1.8 | Cc1ccc(Oc2ccc3c(c2)C(=O)N(c2cccc(C(=O)O)c2)C3=O)cc1C

Next section:
Molecule,Measles inh
CSc1nc2ccc(S(=O)(=O)N3CCCCC3)cc2s1,-0.3
CN(C)CCn1c(C#N)cc2ccccc21,0.1
CC1=C(C(=O)OC2CCCC2)C(c2ccccc2F)C2=C(CC(c3cccs3)CC2=O)N1 (configuration not stated),-0.12
Oc1c(-c2ccc(F)cc2)c2nc3ccccc3nc2c2ccccc12,-0.53
Cc1nc(NC(=O)c2ccccc2)sc1-c1csc(Nc2ccc(O)cc2)n1,-1.9
Cc1cccc(N=c2oc3ccc(Cl)cc3cc2C(=O)Nc2nccs2)c1C,-0.13
COC(=O)c1ccc(C=Nc2ccc3c4c(cccc24)CC3)cc1,-0.26
Cc1cc(NC(=O)C(C)(C(F)(F)F)C(F)(F)F)no1,-0.12
O=C1CSC2(CCCCC2)N1c1ccc(Br)cc1,-0.68
O=C(c1cccnc1)N1CCN(S(=O)(=O)c2ccc(F)cc2)CC1,-0.34
O=C(c1ccc2c(=O)n(Cc3ccc4c(c3)OCO4)c(=S)[nH]c2c1)N1CCCC1,0.35
O=C(O)c1ccc(CSC2CCCCC2)cc1,0.73
COC(=O)c1ccc(Oc2ncnc3sc4c(c23)CCCC4)cc1,1.5
CCOC(=O)c1c(NC(=O)C(C)Oc2ccc(F)cc2)sc(C)c1C (configuration not stated),0.55
Cc1c(C(=O)Nc2ccccc2F)sc2nc(-c3ccccc3)cn12,-0.83
COc1ccc(OC)c(Nc2c3c(nc4ccccc24)CCC3)c1,-1.4
O=c1c2ccccc2nc(-c2ccccc2Cl)n1Cc1ccccc1Cl,-0.2
CCOC(=O)c1cnc2ccc(OCC)cc2c1Nc1cccc(Cl)c1C,-0.11
O=C(Nc1ccccc1-c1nc2ccccc2o1)c1ccc(N2C(=O)CCC2=O)cc1,-0.55
COc1ccc(NC(=O)CN2CCN(C3c4ccccc4-c4ccccc43)CC2)cc1,1.2
Cc1cccc(N2C(=O)CSC2c2ccc(C(C)(C)C)cc2)c1 (configuration not stated),-1.2
O=C(NCCNC(=O)Nc1ccc(Cl)cc1)Nc1ccc(Cl)cc1,-0.08
O=C(NC1CCCCCCC1)c1cccn2c(=O)c3cc(Br)ccc3nc12,0.3
CC(=O)Nc1sc2c(c1C(=O)Nc1ccccc1C)CCCCC2,-0.62
CCN1C(=Cc2ccc3ccccc3[n+]2CC)Sc2cc(NC(C)=O)ccc21,-0.65
Cc1c(C(=O)Nc2ccc(I)cc2)sc2ncn(Cc3ccccc3Cl)c(=O)c12,1.7
CC(C)c1ccc(NC(=O)C2C3C=CC4(O3)C2C(=O)N(Cc2cccnc2)C4C(=O)NC2CCCC(C)C2C)cc1 (configuration not stated),0.12
CC1CCCC(NC(=O)c2ccc3c(=O)n(CCc4ccccc4)c(=S)[nH]c3c2)C1C (configuration not stated),1.5
COc1ccccc1NS(=O)(=O)c1ccc2c(c1)c(=O)n(C)c(=O)n2C,0.9
CCC(CC)C(=O)N1c2ccccc2CCc2ccccc21,-1.1
COc1ccc(S(=O)(=O)Nc2cccc(C(=O)O)c2)cc1C(=O)NC1CCCCC1,-0.94
COc1ccc(Cl)cc1NC(=O)c1cc(-c2ccccc2OC)on1,0.79
Cc1cccc(-n2c(C)nc3cc(C(=O)NCCc4ccccc4)ccc32)c1,0.17
O=C1c2ccccc2S(=O)(=O)N1Cc1cccc2ccccc12,0.56
O=S(=O)(Nc1nc2ccccc2nc1Nc1ccccc1Br)c1ccccc1,-0.68
COc1cccc(N2C(=O)CC(Sc3ccccn3)C2=O)c1 (configuration not stated),-0.36
Cc1ccn2cc(-c3ccc(Cl)cc3)cc2c1,2.5
O=C(O)CCCN1CNC(=S)NC1,-0.38
COC(=O)c1c(NC(=O)c2ccc(S(=O)(=O)N3CCCCC3)cc2)sc2c1CCN(C)C2,-0.3
O=C(CC1SC(=Nc2ccccc2)N(c2ccccc2)C1=O)Nc1ccc(F)cc1 (configuration not stated),-0.22
O=C(NCc1ccco1)c1cc(Sc2ccc(Cl)cc2)nc2ccccc12,-0.61
COc1ccc(N2CC(C(=O)O)CC2=O)cc1Cl (configuration not stated),-1.5
O=C(Nc1ccc2nc(SCC(=O)N3CCOCC3)sc2c1)c1ccccc1Br,-1.2
O=C(Nc1nc2ccc3ccccc3c2s1)c1cccc(C(F)(F)F)c1,-0.06
Cc1nc2c(C(=O)O)cnn2c(C)c1Cc1ccccc1F,-0.88
Cc1nnc(SCC(=O)N2c3ccccc3C(C)(c3ccc(Cl)cc3)CC2(C)C)s1 (configuration not stated),-0.76
Cc1cc(Nc2ccc(N3C(=O)CCC3=O)cc2[N+](=O)[O-])no1,3.9
CCN1C(=O)c2cccc3c(NC(=O)c4ccc(Cc5ccccc5)cc4)ccc1c23,-1.4
Cc1ccc(Cl)cc1N1CCN(C(=O)CCSCc2ccc(Cl)cc2)CC1,-0.54
CC(C)C1=CC23CCC4C(C)(C(=O)O)CCCC4(C)C2CC1C1C(=O)N(CCO)C(=O)C13 (configuration not stated),-1
Clc1ccc(-c2nc(N3CCOCC3)c3ccccc3n2)cc1,-0.93
O=C(CSc1nnc2scc(-c3ccccc3)n12)Nc1ccc(-c2nc3ccccc3s2)cc1,-0.12
C(=Cc1ccc(C=Cc2ccncc2)cc1)c1ccncc1,-0.42
O=C(O)c1ccc(CN2CCCN(S(=O)(=O)c3ccc(F)cc3)CC2)cc1,2.4
CC(=O)C1=C(c2ccc(Br)cc2)C(=O)c2ccccc2C1=O,-0.03
COc1cccc(CC(CC(=O)O)C(=O)Nc2cc(C)ccc2C)c1 (configuration not stated),1.4
O=C(Cc1ccc(Cl)cc1)Nc1c[nH]c(=O)[nH]c1=O,-0.2
O=C1c2ccccc2-c2c1c(-c1cccc(O)c1)nc1ccc3ccccc3c21,-1.5
CCSc1nc2sc3c(c2c(=O)n1Cc1ccccc1)CC(C)(C)OC3,0.5
CC1CC(C)CN(C(=O)CSc2nc3ccccc3c3nc4ccccc4n23)C1 (configuration not stated),-0.29

Continuation.
Molecule,Measles inh
Cc1nc2c(C(=O)NC3CCCCC3)cnn2c(C)c1Cc1cccc(Cl)c1,-1.2
CC(C)NC(=O)C1CCN(c2nc3cc(Cl)ccc3s2)CC1,1.9
Nc1nnc(SCC(=O)Nc2ccc(F)c([N+](=O)[O-])c2)s1,0.6
COc1ccc(N2C(=O)c3ccc(C)cc3C2=O)c(OC)c1,1.1
CCOC(=O)c1sc(NC(=O)C2CCCC2)c(C(=O)OCC)c1C,-1.4
COc1cc(OC)c(-n2cc(-c3ccc(Cl)cc3)[nH]c2=O)cc1Cl,-0.95
CC(=O)N1c2ccccc2NC2=C(C(=O)CC(c3ccccc3F)C2)C1c1ccc(C)cc1 (configuration not stated),0.05
COC(=O)c1c(NC(=O)COc2ccccc2Br)sc2c1CCC2,0.77
O=[N+]([O-])c1ccc(O)c(C2Oc3ccccc3C3CC(c4cccs4)=NN32)c1 (configuration not stated),1.4
CCCCCOC(=O)C1=C(C)NC2=C(C(=O)CC(C)(C)C2)C1c1ccc(O)c(OC)c1 (configuration not stated),-0.87
Cc1sc2nc(SCCC(C)C)nc(N)c2c1C,-1
CC(=O)c1cccc(N2C(=O)C3C4c5ccccc5C(C(C)=O)(c5ccccc54)C3C2=O)c1 (configuration not stated),0.5
COC(=O)CSc1nnc(CNC(=O)Cc2ccccc2)n1C,-0.12
CC(NC1CCOC(C)(C)C1)c1ccccc1 (configuration not stated),-1
CCOC(=O)C1CCCN(C(=O)C2c3cc(OC)c(OC)cc3C(=O)N(C)C2c2cccs2)C1 (configuration not stated),1
COc1ccc(-n2c(=O)c3c4c(sc3n3cnnc23)COC(C(C)C)C4)cc1 (configuration not stated),0.44
CCOc1ccc(-c2nc3cc(NC(=O)c4cccc(OCC)c4)ccc3o2)cc1,0.47
CN(Cc1ccccc1)c1cc2c(cc1[N+](=O)[O-])C(=O)N(c1ccccc1)C2=O,-0.29
Cc1ccc(NC(=O)COc2ccc(C34CC5CC(CC(C5)C3)C4)cc2)cc1,1.2
COC(=O)COc1ccc(C2C(C(=O)OC)=C(C)NC3=C2C(=O)c2ccccc23)cc1 (configuration not stated),-0.66
Cc1nc2nc(SCC(=O)NCCc3ccccc3)nn2c(C)c1Cc1ccccc1Cl,0.28
CCOC(=O)CC1(N)CCCCC1,-0.56
CC1CCCCC1NC(=O)C1CCN(c2nc3ccccc3o2)CC1 (configuration not stated),-0.7
FC(F)(F)c1cccc(C2=Nn3c(nnc3-c3ccccc3)SC2)c1,-0.15
CCOc1cc(C2NC(=S)NC(C)=C2C(=O)Nc2cc(OC)ccc2OC)ccc1O (configuration not stated),-0.31
Cc1cc(I)ccc1NC(=O)Cn1c([N+](=O)[O-])cnc1C,-1.1
CCn1c(-c2ccc(S(=O)(=O)N3CCCCC3)cc2)csc1=Nc1ccccc1OC,0.47
COc1cc(C(=O)NC(C)c2nc3ccccc3[nH]2)cc(OC)c1OC (configuration not stated),1.6
